High-throughput results (PubChem BioAssay)
Bead autofluor = counter-screen for toxin protease inhibitors: compound fluorescence. 360,000 compounds, 3.1% hits. AID 624483. compound autofluorescence counterscreen, microsphere flow cytometry; stronger effect = higher value. fluorescence intensity (concentration not given with the values);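 active = at least 3 SD above the mean of all compounds, about 16000 in these data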;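 note: 100 nL of 1 mM stock went into each well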
BJeLR viability = kills HRASV12-expressing BJeLR cells. inhibition, % (concentration not given with the values). BJeLR (HRASV12) viability, CellTiter-Glo ATP luminescence, 48 h; reference of the scale not given here. 300,000 compounds, 0.17% hits;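 active = replicate mean above 50%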;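 note: 50 nL library stock added to about 25 µL; numbers are from one replicate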
Mtb hypoxia inh = inhibitors of hypoxia-regulated fluorescent reporter in Mycobacterium tuberculosis; 300,000 compounds, 0.1% hits; M. tuberculosis hypoxia-regulated fluorescent reporter, fluorescence; fluorescence inhibition, % (no concentration beside the values); AID 1159583;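 active = 35 to 45% if threefold the growth effect, above 45% if 1.5-fold the growth effect; inactive = the rest, general growth blockers included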;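 note: wells of about 50 µL received 100 nL stock; 0% = vehicle wells and 100% = reference inhibitor wells; whole bacteria with a GFP reporter of the hypoxia response; strong numbers were not always called active; many hits fall short of the cut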
PrP UTR inh = suppresses PrP 5' UTR mRNA reporter expression; AID 488862; 340,000 compounds, 0.35% hits; cell-based PrP 5' UTR mRNA reporter, plate reader; inhibition, % (concentration not given with the values);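 active = every replicate at 50% or more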;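 note: 0 = median of the neutral control wells; tested in H4 reporter cells; numbers are from one replicate; inactives centre near -14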
ugtP null kill = kills S. aureus RN4220 lacking UgtP; growth inhibition, % (test concentration not listed); S. aureus RN4220 ugtP deletion, OD600 growth, 16 h; some inactives read as strong as hits; 330,000 compounds, 0.54% hits; AID 1259309;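 active = z-score under -3 and OD600 up to 0.15 on both plates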;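 note: plate controls were untreated wells for no effect and antibiotic for full effect; wells of about 80 µL received 100 nL stock; the first replicate is given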
RN4220 kill = kills Staphylococcus aureus RN4220 | S. aureus RN4220 growth, OD600, 16 h | 330,000 compounds, 0.33% hits | inhibition, % (concentration not given with the values);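 active = z-score of -3 or lower and OD600 up to 0.18 on both plates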;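 note: plate controls were untreated cells for no effect and reference antibiotic for full effect; stock transfer was 100 nL into about 80 µL; one replicate is shown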
Mtb hypoxia inh growth = second read-out of Mtb hypoxia inh, no call of its own (marks repeat the call); growth inhibition, %; measured here: M. tuberculosis growth (absorbance);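 0% = vehicle and 100% = reference antibiotic; read after six days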
* hit, by the source's call; · = no result given; & = joins results of further samples. Rows are unselected; overall some 3.9% were active at least once.

SMILES	Bead autofluor	BJeLR viability	Mtb hypoxia inh	Mtb hypoxia inh growth	PrP UTR inh	ugtP null kill	RN4220 kill
CCC(=O)Nc1ccc(S(=O)(=O)NCCc2ccccc2)cc1	·	-7	3	1	3	9	4.3
Clc1ccc(CSc2nnc3ccccn23)c(Cl)c1	2100	-1	7	12	-20	1	6.8
CCOC(=O)c1sc(NC(=O)CSc2nnnn2-c2ccccc2)nc1C	10814	11	-10	-5	-1	4	3.1
CC(=O)N/C(=C\c1cccc([N+](=O)[O-])c1)C(=O)NC1CCCCC1	10298	-1	2	1	-20	7	4.9
O=C(NC1CCS(=O)(=O)C1)c1cccc(Cl)c1 (stereo unspecified)	5967	5	5	-3	-36	4	-0.6
CCC(C)(C)c1ccc(Oc2ccc(NC(=O)COC(=O)C3=COCCO3)cc2)cc1	21285*	4	9	6	6	66	6.8
O=C(Nc1ccc(Cl)cc1Cl)C1CCC(=O)N1Cc1ccccc1Cl (stereo unspecified)	2743	-3	·	·	-32	0	-0.6
O=C(Cc1ccc([N+](=O)[O-])cc1)Nc1cccc(C(=O)N2CCOCC2)c1	3973	·	-3	0	-25	-2	-1.4
CCOCCCn1c(=NC(C)=O)c(C#N)cc2c(=O)n3cccc(C)c3nc21	5904	6	-2	-2	-24	3	3.7
O=C(NCc1cccnc1)c1nnc(Cc2ccc(F)cc2)o1	5787	3	-2	-2	-19	-6	6.1
COc1ccc(C(=O)c2ccc(Cl)c([N+](=O)[O-])c2)cc1	2121	67*	3	9	-2	1	4.4
Cc1cccc2nc(C(=O)Nc3cc(Cl)ccc3-n3cncn3)cn12	5086	·	5	-5	-24	3	1.0
CCCCNC(=O)C(CC)(ONc1ccccc1C(F)(F)F)c1ccccc1 (stereo unspecified)	3449	·	8	6	-22	8	3.5
COc1ccccc1-n1cc(CN2CCN(C3CCCC3)C(CCO)C2)cn1 (stereo unspecified)	2590	3	10	2	-13	4	3.9
Cc1ccc(C)c(NC(=O)CCC(=O)NNC(=S)Nc2ccccc2)c1	4587	1	-8	-2	-4	2	1.3
CN(NC(=O)c1ccc(Cl)cc1)c1nc(-c2ccccc2)nnc1C(F)(F)F	2892	-5	·	·	-25	-24	-6.0
COc1ccc(S(=O)(=O)NC2CC(=O)N(c3cccc(F)c3)C2)cc1OC (stereo unspecified)	5528	-5	1	5	-30	3	4.8
NC(=O)c1ccsc1NC(=O)CSc1ccccc1F	10993	-9	11	5	-64	3	3.9
COc1ccc(O)c(C(c2c(C)[nH][nH]c2=O)c2c(C)[nH][nH]c2=O)c1	3911	-10	·	·	-19	·	·
Cn1c2ccc(Br)cc2c2nnc(SCC(=O)O)nc21	3110	0	9	5	-6	6	6.7
CCOCCCNC(=S)Nc1ccc(Br)cc1Cl	5081	8	-1	3	-18	3	1.1
Cc1nc(SCc2ccc(F)cc2)c([N+](=O)[O-])[nH]1	2481	3	12	1	-19	3	1.3
Cc1nc(NCC2CCCO2)nc2c1C(=O)CC(C)C2 (stereo unspecified)	4390	-1	·	·	-18	-1	3.9
O=C(CSCc1c(Cl)cccc1Cl)NCC1CCCO1 (stereo unspecified)	4198	3	11	8	-6	6	1.8
CC1(C)C2CCC(C2)C1(C)NC(=O)CNCc1cccs1 (stereo unspecified)	2418	8	·	·	-4	·	·
Cc1ccc(Cl)c(Nc2ccccc2C(=O)O)c1Cl	5868&5916	-3	1&-1	-1&-1	-15&-3&-17	3&-14	23&25
C(=Cn1nnc2ccccc21)c1ccccn1	·	·	13	15	·	4	9.7
COc1cccc(C=Nn2c(=S)n(C)c3ccccc32)c1OC	·	·	10	9	·	-1	5.8
O=C(NCCCN1CCOCC1)C(=O)NN=Cc1ccc2c(c1)OCO2	·	·	-2	11	·	8	1.3
O=C(c1ccccc1NS(=O)(=O)c1ccccc1[N+](=O)[O-])N1CCCC1	5701	3	3	-14	-7	1	2.8
CCN1CCN(Cc2ccc(NC(=O)c3cc(NC(=O)c4cnnc5ccccc45)cc(OC)c3)cc2C(F)(F)F)CC1	3669&3090	-6	3	20	-2	-6	-4.5
CCOCCCNC(=O)Cn1cc2c(n1)CCCC2	6314	-5	·	·	-17	4	4.0
O=C(CCCN1C(=O)/C(=C/c2cccs2)SC1=S)Nc1ccccc1O	3586	-1	8	6	-23	0	5.1
COc1cc(/C=C(\C#N)c2ccccn2)ccc1OCc1ccc(Cl)cc1	2875	-3	4	6	-14	-5	18
CCN(CC)c1ccc(NC(=O)C2=CC=CN3CCS(=O)(=O)N=C23)cc1	5396	·	8	2	-37	12	8.3
CCN(CC)c1nc(N)nc(NS(=O)(=O)c2ccc(Cl)cc2)n1	19449*	-7	0	5	-6	4	6.8
S=c1[nH]nc(C2(c3ccccc3)CCCC2)o1	4992	2	-3	2	-10	7	11
O=C(CN1CCN(c2ccc(F)cc2)CC1)N1CCOCC1	2740	5	6	10	-8	5	1.2
CSc1ccc(Cl)c(C(=O)OCC(=O)NCc2ccco2)c1	2470	3	5	12	0	-7	0.9
COc1ccc2c(c1O)[C@]13CCN(C)[C@H](C2)[C@@H]1CCC(=O)C3	4483	3	4	8	-83	8	1.4
COc1cc(NC(=O)C/C(C)=N/NC(=O)C(OC)c2ccccc2)c(OC)cc1Cl (stereo unspecified)	2118	1	·	·	-6	·	·
CC1=C(C(=O)OC2CCCCCC2)C(c2ccc(C)o2)C2=C(CCCC2=O)N1 (stereo unspecified)	9556	12	7	9	-15	-5	3.3
CCCOc1ccccc1/C=N/Nc1ccnc(=O)[nH]1	2832	10	·	·	-16	·	·
COc1cc(OC)c(C2=NOC(C(=O)N3CCCc4ccccc43)C2)cc1Cl (stereo unspecified)	23619*	7	8	5	-19	5	-0.9
CCN1C(=O)CSc2ccc(C(=O)NCc3ccco3)cc21	16140*	-9	8	2	-10	10	1.3
[O-]/C(=C(\C(=S)NCCN1CCOCC1)[n+]1ccccc1)c1ccc(Cl)s1	4558	12	10	4	-32	8	7.4
CN1CCN(c2ccc(S(=O)(=O)N3CCCCC3)cc2NC(=O)COc2ccc(F)cc2)CC1	·	-5	7	0	-7	-1	5.0
CC(C(=O)N1CCOCC1)N1C(=O)c2ccccc2C1=O (stereo unspecified)	2695	10	·	·	-17	-2	-0.2
CCOC(=O)c1c(NN=Cc2ccncc2)n[nH]c1C	·	·	11	2	·	7	-0.9
CCOc1ccc(N(CC(=O)N/N=C/c2cc(Br)c(C)o2)S(C)(=O)=O)cc1	4740	1	·	·	-3	·	·
CC(C)CCN1C(Nc2ccccc2)=NC[C@@H]1CC(C)C	4054	-1	·	·	-27	·	·
O=S(=O)(Nc1ccc(Br)cc1)c1cccc2cccnc12	4439	1	9	-8	-25	1	-5.0
FC(F)(F)c1ccc2c(c1)NP(=S)(N1CCOCC1)c1nccn1-2 (stereo unspecified)	8150	10	9	7	-16	3	2.8
Cc1ccc(NC2=CC(=O)CC(c3ccc(Cl)cc3)C2)cc1 (stereo unspecified)	2698	-2	10	-2	-15	-6	-1.0
COC(=O)c1c(C)[nH]c(C(=O)C(C)OC(=O)C2=NNC(=O)CC2)c1C (stereo unspecified)	5103	-5	12	9	0	2	2.5
COc1ccc(NC(=O)CN2C(=O)NC(C)(C3CC3)C2=O)cc1S(=O)(=O)N1CCCCC1 (stereo unspecified)	2931	·	14	10	-15	6	5.9
Cc1ccc(OCCN2CCN(C(=O)CCC(=O)Nc3nnc(C(C)C)s3)CC2)cc1	3474	10	8	17	-13	20	-4.8
N#Cc1ccc(C(=O)NN=Cc2cn(CC(=O)O)c3ccccc23)c(F)c1	·	·	5	-1	·	0	4.7
CCOc1ccccc1C1CC(c2cccc(NS(C)(=O)=O)c2)=NN1C(=O)c1ccccc1 (stereo unspecified)	8597	-12	0	2	-13	1	3.2
CN(c1ccc(OCC(=O)OCC(=O)Nc2c(F)c(F)c(F)c(F)c2F)cc1)S(=O)(=O)c1ccc(F)cc1	2491	-3	8	-3	-2	3	1.0

6 of the compounds above, as comma-separated lines:
Molecule,Bead autofluor,BJeLR viability,Mtb hypoxia inh,Mtb hypoxia inh growth,PrP UTR inh,ugtP null kill,RN4220 kill
COc1cc(/C=C(\C#N)c2ccccn2)ccc1OCc1ccc(Cl)cc1,2875,-3,4,6,-14,-5,18
CCN(CC)c1ccc(NC(=O)C2=CC=CN3CCS(=O)(=O)N=C23)cc1,5396,·,8,2,-37,12,8.3
CCN(CC)c1nc(N)nc(NS(=O)(=O)c2ccc(Cl)cc2)n1,19449*,-7,0,5,-6,4,6.8
S=c1[nH]nc(C2(c3ccccc3)CCCC2)o1,4992,2,-3,2,-10,7,11
O=C(CN1CCN(c2ccc(F)cc2)CC1)N1CCOCC1,2740,5,6,10,-8,5,1.2
CSc1ccc(Cl)c(C(=O)OCC(=O)NCc2ccco2)c1,2470,3,5,12,0,-7,0.9

(continued)
SMILES	Bead autofluor	BJeLR viability	Mtb hypoxia inh	Mtb hypoxia inh growth	PrP UTR inh	ugtP null kill	RN4220 kill
C=CCS/C(N)=N\N=C\c1cc(Br)cc([N+](=O)[O-])c1O	4681	0	·	·	-20	·	·
CCN1CCN(c2ccc(S(=O)(=O)N3CCOCC3)cc2NC(=O)c2ccc(C)cc2C)CC1	3357	·	13	9	-23	0	0.0
COc1ccc(CC(=O)c2ccc(O)cc2O)cc1	4224	-3	·	·	-20	-3	3.8
COc1ccccc1N1CCN(C(=O)c2ccc3nc[nH]c3c2)CC1	7953	-2	4	2	-7	4	2.4
COc1ccccc1NS(=O)(=O)c1cc(NC(=O)Nc2cccc(C)c2)ccc1N1CCCCC1	2055	10	0	3	-21	-3	2.5
Cc1cc(=O)c(C(=O)O)c(C)n1-c1ccccc1	3228	·	-2	-3	7	-2	1.0
COc1ccccc1C1=NOC(CN2C(=O)c3ccccc3S2(=O)=O)C1 (stereo unspecified)	3628	1	-4	-3	-77	1	3.5
c1ccc2c(C3=NNC(=NC4CC4)SC3)c[nH]c2c1	4586	6	-4	5	-40	-4	0.9
CS(=O)(=O)n1nc(-c2cccnc2)nc1NCc1ccccc1	3337	5	11	8	-25	-1	5.1
O=C(NC1CCCCC1)C(c1ccc(O)c(O)c1)N(C(=O)Cn1nnc2ccccc21)c1cccc(O)c1 (stereo unspecified)	2735	1	0	1	-25	-3	0.7
Cc1cc(Cl)ccc1Oc1ccccc1C(=O)CC#N	2649	3	3	3	-15	16	0.4
Cc1cc(C(=O)N2CCN(c3ccc(C(F)(F)F)cn3)CC2)c(C)o1	4013	8	8	7	-3	1	0.7
COc1ccc(Nc2nc(N)nc(CN3CCOCC3)n2)cc1	2650	8	·	·	-17	4	3.9
C(=NNc1nc(N2CCOCC2)nc(N2CCOCC2)n1)c1ccncc1	·	·	8	2	·	10	0.9
O=C(CCN1C(=O)C2C3CC(C(Br)C3Br)C2C1=O)OCC(=O)c1ccccc1 (stereo unspecified)	2529	5	14	12	-14	8	4.5
COc1cc(NC(=O)c2cc3ccccc3cc2OC)ccc1NC(=O)c1cccs1	4606	5	0	-6	-13	12	15

Compound profiles (already shown):
Shown for O=C(NC1CCCCC1)C(c1ccc(O)c(O)c1)N(C(=O)Cn1nnc2ccccc21)c1cccc(O)c1 (stereo unspecified) = Bead autofluor: 2735; BJeLR viability: 1; Mtb hypoxia inh: 0; Mtb hypoxia inh growth: 1; PrP UTR inh: -25; ugtP null kill: -3; RN4220 kill: 0.7
Shown for Cc1cc(C(=O)N2CCN(c3ccc(C(F)(F)F)cn3)CC2)c(C)o1 = Bead autofluor: 4013; BJeLR viability: 8; Mtb hypoxia inh: 8; Mtb hypoxia inh growth: 7; PrP UTR inh: -3; ugtP null kill: 1; RN4220 kill: 0.7

As a short view, some entries already given.
SMILES	Bead autofluor	BJeLR viability	Mtb hypoxia inh	Mtb hypoxia inh growth	PrP UTR inh	ugtP null kill	RN4220 kill
COc1ccc2c(c1O)[C@]13CCN(C)[C@H](C2)[C@@H]1CCC(=O)C3	4483	3	4	8	-83	8	1.4
COc1cc(NC(=O)C/C(C)=N/NC(=O)C(OC)c2ccccc2)c(OC)cc1Cl (stereo unspecified)	2118	1	·	·	-6	·	·
